Screening results as filed in PubChem BioAssay.
CBX7 AlphaScr: inhibitors of human CBX7 binding to H3K27me3 peptide | normalised signal (fraction of DMSO) (no concentration beside the values) | AID 1224903 | actives 1.1% (n = 66,000) | AlphaScreen His6-CBX7 / biotin-H3K27me3 peptide binding; hits give low values; in the data active = normalised signal below about 0.5;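 also: 100 nL library stock added to about 20 µL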
Target sequence (O95931 whole entry, looked up): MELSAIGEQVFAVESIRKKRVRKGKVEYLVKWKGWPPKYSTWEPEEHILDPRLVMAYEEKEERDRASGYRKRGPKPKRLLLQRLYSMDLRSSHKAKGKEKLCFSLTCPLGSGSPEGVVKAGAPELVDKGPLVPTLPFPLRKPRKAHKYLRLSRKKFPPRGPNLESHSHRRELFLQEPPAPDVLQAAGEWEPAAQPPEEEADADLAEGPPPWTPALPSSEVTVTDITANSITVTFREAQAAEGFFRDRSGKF
CBX7 AlphaScr z-score: further read-out of CBX7 AlphaScr, marked with its call; z-score; measured here: z-score of CBX7 signal; some inactives read as strong as hits; reference of the scale not given here;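 same signal on another scale; lower means less binding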
The depositor's hits bear a star; & = joins results of further samples.

entry	molecule	CBX7 AlphaScr	CBX7 AlphaScr z-score
1	COc1ccc(NC(=O)CCc2c(C)nc3nc(C)nn3c2C)cc1OC	0.953	-0.204
2	CCOC(=O)c1cnc2cc(C(F)(F)F)ccc2c1Nc1ccc2c(c1)OCO2	0.535	-8.03
3	Cc1ccc(NC(=O)c2cnn(-c3ccccc3)c2C2CCN(C(=O)OC(C)(C)C)CC2)cc1Cl	0.811	-4.8
4	CCC(C)NC(=O)c1cc(-c2ccc(C)c(C)c2)nc2ccccc12 (stereo not drawn)	1.07	2.85
5	CCOC(=O)c1cc(-c2ccccc2)n(CCC(=O)Nc2ccc3c(c2)OCCO3)c1C	0.842	-2.84
6	Cc1ccc(C(=O)N2CCC(c3cc(=O)n4[nH]c(-c5ccc(Cl)cc5)cc4n3)CC2)cc1	1.06	1.49
7	COc1ccc(-c2cc(C(F)(F)F)nc(-n3cncn3)n2)cc1	0.987	-0.331
8	Cc1ccc(NC(=O)Cn2cc(S(=O)(=O)c3ccc(F)cc3)c(=O)c3ccccc32)cc1Cl	1.15	4.84
9	Cn1c(C(=O)N2CCC(C(=O)NCCCN3CCCC3)CC2)cc2sccc21	0.974	-0.464
10	COc1ccc(OC)c(CCNC(=O)CC2Oc3ccc(C)cc3NC2=O)c1 (stereo not drawn)	1.04	1.45
11	CC(=O)NCCc1nc2ccccc2n1Cc1ccc(C)cc1	1.01	0.484
12	CCOc1ccc(N(C)S(=O)(=O)c2ccc3[nH]cc(C(=O)N4CCCCCC4)c(=O)c3c2)cc1	0.805	-2.68
13	CCOc1ccc(CNC(=O)CN2C(=O)C(CC)Sc3ccccc32)cc1OC (stereo not drawn)	0.975	-0.88
14	CCC(=O)Nc1c(C(=O)Nc2cccc(F)c2)oc2ccccc12	1.02	0.268
15	Cc1ccc(Cn2c(C)cc(=O)c3cc(NC(=O)CCC(=O)O)ccc32)cc1	1.03	1.4
16	CCC(C)NCC(O)COCc1ccc(Cl)cc1 (stereo not drawn)	1.23	1.77
17	Cc1ccc(-c2nc3cc(NC(=O)c4cc5ccccc5o4)ccc3o2)cc1	1.02	1.25
18	Cc1ccc(NC(=O)c2oc3ccc(S(=O)(=O)N4CCC5(CC4)OCCO5)cc3c2C)c(C)c1	0.851	-2.06
19	COc1ccc(N2CCN(Cc3nc4c(c(=O)[nH]c(=O)n4C)n3CCc3ccccc3)CC2)cc1	0.966	-1.25
20	O=S(=O)(c1ccccc1)c1nc(-c2ccccc2)oc1N1CCOCC1	0.841&0.956	-2.52&-0.0442
21	CCC1=Nc2cc(C(=O)NC(C)CCc3ccccc3)ccc2Sc2ccc(C)cc21 (stereo not drawn)	0.936	-3.3
22	COc1ccc(CCNC(=O)CCn2nc(-c3ccc(Cl)cc3)ccc2=O)cc1OC	0.997	-0.0842
23	Cc1ccc(S(=O)(=O)Nc2nc3ccccc3nc2Nc2ccccc2Cl)cc1	0.988	-0.342
24	COc1cccc(-c2nc(CS(=O)(=O)CC(=O)NCCN3CCCCCC3)c(C)o2)c1	0.928	-2
25	COc1cccc(NC(=O)C2C3C=CC(C4CC34)C2C(=O)O)c1 (stereo not drawn)	1.32	2.29
26	CCCNC(=O)C1CCCN(c2nn3c(=O)cc(C)nc3s2)C1 (stereo not drawn)	1.03	0.256
27	O=C(Cc1c(C(=O)O)[nH]c2ccccc12)NCCN1CCOCC1	0.993	-0.157
28	CCn1c(=O)cc(OCC(=O)Nc2nccs2)c2ccccc21	0.96	-0.453
29	Cc1ccc(-c2nc(CS(=O)(=O)CC(=O)NCCCN(C)Cc3ccccc3)c(C)o2)cc1	1.3	2.87
30	O=C(Nc1ccc2oc(-c3ccc(F)cc3Cl)nc2c1)c1cccc(F)c1	0.973	-1.11

Exported as labelled records: entries from further up
19: COc1ccc(N2CCN(Cc3nc4c(c(=O)[nH]c(=O)n4C)n3CCc3ccccc3)CC2)cc1
- CBX7 AlphaScr: 0.966
- CBX7 AlphaScr z-score: -1.25

20: O=S(=O)(c1ccccc1)c1nc(-c2ccccc2)oc1N1CCOCC1
- CBX7 AlphaScr: 0.841&0.956
- CBX7 AlphaScr z-score: -2.52&-0.0442

21: CCC1=Nc2cc(C(=O)NC(C)CCc3ccccc3)ccc2Sc2ccc(C)cc21 (stereo not drawn)
- CBX7 AlphaScr: 0.936
- CBX7 AlphaScr z-score: -3.3

22: COc1ccc(CCNC(=O)CCn2nc(-c3ccc(Cl)cc3)ccc2=O)cc1OC
- CBX7 AlphaScr: 0.997
- CBX7 AlphaScr z-score: -0.0842

(further entries)
entry	molecule	CBX7 AlphaScr	CBX7 AlphaScr z-score
31	Cc1cc(C)cc(NC(=O)c2ccccc2-c2nc3ccccc3[nH]2)c1	1.12	0.211
32	CCCCNC(=O)CSCc1nc(-c2ccc(OCC)cc2)oc1C	0.894	-1.46
33	CCc1c(C)sc(NC(=O)c2cc(-c3cccc(Cl)c3)on2)c1C#N	1.39	3.02
34	COc1cccc(Cn2c(=O)n(Cc3ccccc3Cl)c(=O)c3cccnc32)c1	1.16	2.9
35	CCCCNC(=O)c1cc(=O)[nH]c2ccc(S(=O)(=O)N(CCCC)CCCC)cc12	1.01	0.421
36	CCCOc1cccc(C(=O)Nc2cccc(NC(=O)c3cccc(Cl)c3)c2)c1	1.09	1.74
37	CCCCOc1ccc(C(=O)NCC2(c3ccccc3)CCOCC2)cc1OC	1.03	0.797
38	Cc1ccc2c(c1)-c1c(cnn1CC(=O)NC1CCCC1)CO2	1.11	2.07
39	Cc1ccc(NC(=O)C2CCN(S(=O)(=O)c3cnc[nH]3)CC2)cc1Cl	1.1	1.24
40	COc1cc(NS(=O)(=O)c2ccc(Nc3nc(-c4ccc(C)c(C)c4)cs3)cc2)nc(OC)n1	1.12	0.9
41	O=C1CCCC2=C1C(c1cccnc1)Nc1ccc3ccccc3c12 (stereo not drawn)	0.957	-0.692
42	COc1ccc(NC(=O)[C@H](Cc2ccccc2)N2Cc3ccccc3C2=O)cc1Cl	0.306*	-1.94*
43	COc1ccc(C(=O)c2ccccc2)cc1CN1CCOCC1	0.79	-2.29
44	O=C(NCc1cccs1)c1ccc2c(c1)N(Cc1ccccc1F)C(=O)c1ccccc1S2	1.01	0.235
45	Cc1cc(C)nc(Nc2ncc(O)n2-c2ccc(C)c(Cl)c2)n1	0.998	-0.0146
46	CCOC(=O)c1c(C)n(C)c2ccc(OCC(O)CN3CCC(C)CC3)cc12 (stereo not drawn)	0.972	-1.22
47	CCCC(=O)NCCc1cc2ccc(C)cc2[nH]c1=O	1.04	1.86
48	CCOc1ccc(CCNC(=O)c2cc3sc(Cl)cc3n2C)cc1OCC	1.02	0.653
49	COc1ccccc1OCc1nc(C#N)c(N2CCOCC2)o1	1.04	0.239
50	CCn1ncc(CN(C)C(=O)c2cc(-c3ccccc3)nc3ccc(Br)cc23)c1C	0.985	-0.376
51	Nc1nc(-c2cc3ccccc3oc2=O)cs1	1.05	0.741
52	Cc1cc(C(=O)CN2CC(C)OC(C)C2)c(C)n1-c1ccc(F)c(Cl)c1 (stereo not drawn)	0.795	-2.64
53	Cc1ccc(C)c(NC(=O)CSc2nccn2-c2cccc(C)c2C)c1	0.977	-0.0232
54	O=C(NCc1ccccc1)c1cc(Nc2cccc(C(F)(F)F)c2)nc2ccccc12	1.32	6.34
55	O=C(Nc1ccc(Oc2ccccc2)cc1)c1ccc(F)c(S(=O)(=O)N2CCOCC2)c1	1	0.00145
56	CCC1CCCCN1C(=O)Cn1c(SCc2cccc(C)c2)nc2ccncc21 (stereo not drawn)	1.17	2.35
57	Cc1ccc(-n2c3c(cc(C(=O)Nc4cccc(Cl)c4)c2=O)C(=O)CC(C)(C)C3)cc1	1.11	0.444
58	O=C(NCCc1ccccc1)C1CCC(=O)N1C1CCCC1 (stereo not drawn)	1.02	0.809
59	COc1cccc(C2=NOC(C(=O)N3CCOCC3)C2)c1 (stereo not drawn)	0.994	-0.0818
60	CCOC(=O)c1c(NC(=O)COc2cccc(C)c2C)sc2c1CCCCC2	1.08	1.09
61	Cc1cc(C)cc(OCC(=O)N(Cc2cccs2)C2CCS(=O)(=O)C2)c1 (stereo not drawn)	1.04	1.15
62	CC(C)C(=O)N1CC(=O)Nc2ccc(Cl)cc2C1c1ccc(F)cc1 (stereo not drawn)	1.05	1.26
63	Cc1ccc2nc(Nc3cc(C(=O)O)ccc3C)c(-n3nc(C)cc3C)nc2c1	1.05	1.9
64	COc1ccc(C(=O)c2oc3ccccc3c2NC(=O)COc2ccccc2OC)cc1	0.978	-0.425
65	O=C(NCCN1CCOCC1)C1CCN(c2nc3ccccc3o2)CC1	0.988	-0.352
66	Cc1cccc(N2CCN(S(=O)(=O)c3ccc4c(c3)CCC(=O)N4)CC2)c1C	0.969	-0.689
67	O=C(CCc1nc(-c2cccs2)no1)Nc1ccc(F)cc1F	1.07	0.0714
68	CC(C)CCNC(=O)C1CCC(=O)N1CCc1ccccc1 (stereo not drawn)	1.02	0.369
69	CC(NC(=O)CSc1nc2ccc(N)cc2s1)c1ccccc1 (stereo not drawn)	0.985	-0.11
70	COc1cccc(C(=O)N2CC(=O)Nc3ccc(Br)cc3C2c2ccc(F)cc2)c1 (stereo not drawn)	0.895	-1.45
71	Cc1ccc(NC(=O)Cn2cnc3sc(C)cc3c2=O)c(Br)c1	1.07	3.35
72	Cc1cccc(CC(=O)N2CC(=O)Nc3ccc(C)cc3C2c2ccccc2)c1 (stereo not drawn)	0.958	-0.0578
73	Cc1cc(Nc2ccc(F)cc2C)n2nc(C)nc2n1	1.03	0.634
74	CCCCCNC(=O)c1c[nH]c2ccc(S(=O)(=O)N(CC)c3cccc(C)c3)cc2c1=O	1.06	0.717
75	CCC(Sc1nccn1C)C(=O)Nc1cc(C)on1 (stereo not drawn)	1.01	0.016
76	c1ccc(CCCNc2ccc3nnc(-c4ccccc4)n3n2)cc1	0.91	-2.04
77	Cc1cccc(NC(=O)C2(S(=O)(=O)c3ccc(Cl)cc3)CC2)c1	0.965	-0.124
78	O=C(NCc1ccccc1)C1CCN(S(=O)(=O)c2cccc3cccnc23)CC1	1.04	0.154
79	O=C(Cc1c(C(=O)O)[nH]c2ccc(Cl)cc12)NCc1ccc(F)cc1	1.04	0.409
80	CC(NC(=O)c1ccc2c(c1)N(Cc1ccccc1)CCS2)c1ccccc1 (stereo not drawn)	0.908	-0.122
81	CCOc1ccc(S(=O)(=O)N2CCN(C)CC2)cc1-c1nc2c(C(C)(C)C)nn(C)c2c(=O)[nH]1	0.919	-2.62
82	COc1ccccc1-c1cc2nc(C)c(CCC(=O)NCCCOC(C)C)c(C)n2n1	0.822	-2.91
83	CC(C)(O)c1cnnn1-c1nonc1N	1.02	0.558
84	COCCN1Cc2cccc(C(=O)NCc3ccccn3)c2C1=O	1.12	1.88
85	Fc1ccc(-c2nnn(Cc3ccc(F)cc3Cl)n2)cc1	1.15	0.201
86	O=C(Cn1ccc2ccccc2c1=O)NCCC(=O)N1CCCCC1	0.982	-0.398
87	COc1ccc(CC(=O)NCCc2cc3c(C)ccc(C)c3[nH]c2=O)cc1	0.987	-0.332
88	O=C(NCc1ccc(Cl)cc1)C1(S(=O)(=O)c2ccc(Cl)cc2)CC1	1.02	0.0878
89	CC(C)(C)c1ccc2c(c1)N(CC(=O)NCc1ccc3c(c1)OCO3)C(=O)CO2	1.13	2.31
90	COCCNC(=O)C1CCN(Cc2nc(-c3cccc(Cl)c3)oc2C)CC1	0.976	-0.604

(more compounds)
entry	molecule	CBX7 AlphaScr	CBX7 AlphaScr z-score
91	CN1CCN(c2c(-c3ccccc3)c3cc(Cl)ccc3[nH]c2=O)CC1	1.15	2.85
92	O=C(NCc1ccc(F)cc1)C1CC(=O)N(c2ccc(F)cc2)C1 (stereo not drawn)	1.07	1.6
93	Cc1ccc(-c2noc(CCC(=O)N3CCCC(C)C3)n2)cc1 (stereo not drawn)	1.06	0.563
94	CCOC(=O)c1ccccc1NC(=O)Cn1ncc2c1-c1ccccc1OC2	0.836	-2.06
95	Cc1cc(NC(=O)C2CCCN(S(=O)(=O)c3cccs3)C2)ccc1Br (stereo not drawn)	1.19	3.48
96	COc1ccc(NC(=O)N(C2CCCCC2)C(C)c2ccncc2)c(OC)c1 (stereo not drawn)	0.951	-2.52
97	CC(=O)N1c2ccc(S(=O)(=O)Nc3ccc(C)cc3)cc2CC1C (stereo not drawn)	1.24	0.962
98	CCn1c(C2CC(=O)N(Cc3ccccc3)C2)nc2ccccc21 (stereo not drawn)	1.05	0.374
99	Cc1cc(C)cc(-n2c(C)nc3cc(C(=O)NCCC4=CCCCC4)ccc32)c1	0.987	-0.123
100	COc1ccc(-c2cc(C(=O)Nc3ccccc3OC)c3cccc(C)c3n2)cc1	0.913	-0.735
101	Cc1cccc(N(C)S(=O)(=O)c2ccc3[nH]cc(C(=O)N(C)C4CCCCC4)c(=O)c3c2)c1	1.12	1.14
102	COc1ccccc1NC(=O)Cn1cnc2sc(C(=O)Nc3ccccc3OC)c(C)c2c1=O	1.1	1.09
103	Cc1ccc(CNC(=O)CSCc2nc(-c3ccccc3Cl)oc2C)cc1	0.68	-0.895
104	CCC1Oc2ccccc2N(CC(=O)NCc2ccccn2)C1=O (stereo not drawn)	0.534	-6.76
105	O=C(CSc1nc(-c2ccc(F)cc2)[nH]c1-c1ccccc1)Nc1nccs1	0.894	-1.82
106	Cc1ccc(NC(=O)Nc2ccc(Cc3ccncc3)cc2)cc1C	1.02	0.194
107	Cc1onc(-c2c(Cl)cccc2Cl)c1C(=O)Nc1nccs1	0.948	-0.229
108	CC1C(=O)C(C)C(c2ccccc2F)NC1c1ccccc1F (stereo not drawn)	1.05	1.31
109	N#Cc1nc(COc2ccccc2F)oc1NCc1ccc2c(c1)OCO2	0.509	-8.93
110	CC1CCCN(S(=O)(=O)c2cccc(-c3cn4ccccc4n3)c2)C1 (stereo not drawn)	0.93	-2.5
111	CCOc1ccc(CCNC(=O)C2CCN(c3nc4c(C)cc(C)cc4s3)CC2)cc1	1.02	0.409

Only part of the results is shown. The share of hits here may be higher or lower than overall.
